ClpP mod: qHTS Assay for Activators of ClpP; ATP-dependent Clp protease proteolytic subunit (Bacillus subtilis (strain 168)), P80244; purified B. subtilis ClpP, FRET peptide cleavage, 20 min; Potency, µM (series often up to 57.5 µM), for the others: at the highest dose activity change, negative = active; actives 1.9% (n = 340,000); active = well fitted falling curve with a large enough effect; inconclusive = small, poorly fitted or top-dose-only effect; inactive = no such curve, though single readings can be large or run the other way; note: potency is the fitted concentration of half-maximal effect; the source files actives as falling curves though it sought activators and does not explain the sign; nearly all actives have a fitted effect of over 65% in size; many hits overshoot -100%
Target sequence (P80244 whole entry, looked up): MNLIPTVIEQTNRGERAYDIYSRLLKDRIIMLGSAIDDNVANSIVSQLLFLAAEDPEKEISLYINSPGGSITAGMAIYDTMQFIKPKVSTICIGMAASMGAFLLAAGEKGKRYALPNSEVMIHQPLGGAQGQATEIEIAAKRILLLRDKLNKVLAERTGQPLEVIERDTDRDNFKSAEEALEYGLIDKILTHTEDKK
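Purified B. subtilis ClpP, 10 microg/mL final in Tris/HCl pH8 with KCl, BSA, glycerol and Tween-20, cleaved an Abz/nitrotyrosine-quenched decapeptide. Fluorescence (ex 320, em 430) was read at 0 and 20 min at room temperature. Delta was normalized to 5.8 microM ADEP and DMSO/no-enzyme controls.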
gsp antagonist: antagonists of gsp mutant (McCune-Albright syndrome); gsp-mutant cells, cAMP HTRF, 30 min; control for the full effect not named in the record; Potency, µM (series often up to 76.9 µM), without a hit: at the highest dose activity change, negative = inhibition, hits mostly inhibitors; actives 0.4% (n = 340,000); active = falling curve of any shape with a large fitted effect; inconclusive = falling curve, mostly with a smaller effect; inactive = flat or rising curve; cell line not stated here;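 note: intracellular cAMP measured with PDE inhibitor Ro 20-1724 present during compound exposure; potency is the fitted concentration of half-maximal effect; % is set by controls: 0 for no effect and ±100 for the full control effect; nearly all actives have a fitted effect of over 65% in size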
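HTRF cAMP read-out (cAMP-d2 plus anti-cAMP antibody-K in lysis buffer, 30 min RT). Before lysis, cells are exposed to compounds with […] for 30 min at 37C in DPBS containing Ca/Mg, BSA and Tween 20.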
Sfp inh: blocks B. subtilis Sfp PPTase activity; Q9F4F7; Biochemical Sfp PPTase activity, qHTS; Potency, µM, for the others: max response, negative = inhibition, actives largely listed as inhibitors; actives 3.5% (n = 310,000); AID 1490; active = well fitted inhibition curve with a large enough effect; inconclusive = small, poorly fitted or top-dose-only effect, or another doubt; inactive = no such curve, though single readings can be large or run the other way;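 note: the enzyme is Sfp with the accession as filed and its product quenches rhodamine fluorescence; potency is the fitted concentration of half-maximal effect; 0% = enzyme reaction without inhibitor and -100% = no enzyme wells; top concentration of the series not given in the record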
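Fluorescence-quenching assay: 15 nM Sfp-PPTase preincubated 15 min at room temperature with compound, then 5 uM rhodamine-CoA and 12.5 uM BHQ-2-labelled YbbR peptide added. Fluorescence (ex 525/em 598 nm) read at start and after 30 min; difference gives rate.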
Menin-MLL FL inh: menin-MLL binding inhibition, fluorescein peptide. Fluorescence polarization, fluorescein-MLL peptide displacement from menin. FP activity change, % at 61.4 µM. 290,000 tested, under 10 active. AID 1766; inconclusive = falling polarisation curve, or a change in total fluorescence; inactive = total fluorescence flat and polarisation flat or rising; no compound was filed as active; the % refers to the polarisation; negative = inhibition;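 note: % of control where 0% means no effect; inhibitors lower the polarisation; unlabelled MLL peptide was the positive control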
PINK1 modulator: changes PINK1 expression | Potency, µM (titrated, usually from 76.6 µM), for inactives: at the top dose activation (PINK1 increase), usual class: activators | PINK1 immunofluorescence, high-content cytometry, 24 h | actives 0.2% (n = 410,000); active = well fitted activation curve with a large enough effect; inconclusive = small, poorly fitted or top-dose-only effect; inactive = flat fitted curve, though single readings scatter; cell line not stated here;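 note: potency is the fitted concentration of half-maximal effect; % of control where 0% means no effect; nearly all actives have a fitted effect of over 65% in size; a mitochondrial uncoupler was the plate control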
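Stable cell line, 250 cells/well, 12 h attachment; compounds pinned at 5 concentrations, 24 h; CCCP control. Fixed with nuclear dye, primary antibodies 12 h at 10 degrees C, secondary plus cell stain; laser-scanning cytometer read.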
D2 agonist: activates the human D2 dopamine receptor; P14416; DiscoveRx PathHunter D2 beta-arrestin, luminescence, 90 min; 100% = 57 uM dopamine signal; activation, % (concentration not given with the values); actives 0.084% (n = 360,000); AID 624465; in the data active = activation above about 40%; inconclusive = about 15% to 40%; inactive = below about 15%; note: compound concentration not given in the record; the text of the record calls up to 30% inactive
Target sequence (P14416 whole entry, looked up): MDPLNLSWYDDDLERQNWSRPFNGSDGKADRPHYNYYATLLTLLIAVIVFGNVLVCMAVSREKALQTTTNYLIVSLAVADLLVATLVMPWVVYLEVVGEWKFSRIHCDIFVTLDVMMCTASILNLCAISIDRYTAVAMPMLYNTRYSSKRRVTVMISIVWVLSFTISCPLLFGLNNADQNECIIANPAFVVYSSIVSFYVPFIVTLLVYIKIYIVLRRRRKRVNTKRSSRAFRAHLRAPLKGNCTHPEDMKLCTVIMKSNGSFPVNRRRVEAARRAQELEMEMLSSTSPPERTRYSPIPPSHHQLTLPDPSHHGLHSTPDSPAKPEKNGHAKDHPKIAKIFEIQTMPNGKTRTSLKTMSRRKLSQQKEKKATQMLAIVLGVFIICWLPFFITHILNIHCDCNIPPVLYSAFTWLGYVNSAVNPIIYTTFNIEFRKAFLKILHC
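DiscoveRx PathHunter D2 beta-arrestin cells (2,100/well) attached overnight, then compound-stimulated 90 min at 37 C in HBSS/10 mM HEPES/0.1% Tween-20 buffer; beta-galactosidase complementation read by luminescence after 1 h at ambient temperature. Dopamine 57 uM final (EC100) as control.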
gsp agonist: agonists of gsp mutant (McCune-Albright syndrome) | gsp mutant cells, cAMP HTRF, 30 min; control for the full effect not named in the record | AID 624287 | actives 0.13% (n = 340,000) | Potency, µM (series often up to 76.9 µM), for the others: at the top dose activation (cAMP increase), hits mostly activators; active = well fitted activation curve with a large enough effect; inconclusive = small, poorly fitted or top-dose-only effect, or another doubt; inactive = no such curve, though single readings can be large or run the other way; cell line not stated here;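 note: phosphodiesterase inhibitor Ro 20-1724 added with compounds to block cAMP breakdown; potency is the fitted concentration of half-maximal effect; nearly all actives have a fitted effect of over 60% in size; about a fifth of the inactives were tested at one dose only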
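Cells stably selected in G418 were plated at 2000/well, grown 16-24 hr, then given compounds in DMSO with the PDE inhibitor […] (300 uM solution added) for 30 min at 37C; cAMP was read by HTRF.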
Starred values were filed as active, the others as inactive; ? = inconclusive; / = no result given; [ ] = dose if it differs, or a comment. Compounds as they come (roughly 5.1% active in at least one column).

SMILES | ClpP mod | gsp antagonist | Sfp inh | Menin-MLL FL inh | PINK1 modulator | D2 agonist | gsp agonist
O=C(/C=C/c1cccc(O)c1)c1ccc(N2CCOCC2)cc1 | -0.9% | 9.2% | -2.9% | 6.0 | 1.4% | -2.5 | 0.6%
COc1c(S(=O)(=O)Nc2cccnc2)ccc(Cl)c1Cl | -11.1% | 6.1% | 1.0% | 1.1 | 1.1% | -3.2 | 11.2%[15.4 µM]
Cc1cc(C(=O)Nc2ncc(C)s2)c2ccccc2n1 | / | 1.6% | -10.5% | -0.3 | 3.0% | -0.9 | -13.2%[15.4 µM]
Cc1ccc(CNC(=O)C(=O)NCCC2CCCCN2S(=O)(=O)c2ccc(C)cc2)cc1 (centres undefined) | -2.2% | 3.0% | / | / | -2.1% | -2.1 | -30.4%
CCCCCc1ccc(OCCCC[n+]2cccc(C)c2)c(CCCCC)c1 | / | 0.1% | -8.4% | 1.4 | -3.0% | -4.0 | -4.9%
CCN1C(=O)[C@@H]2Cc3c([nH]c4ccccc34)C(c3cc(OC)c(OC)c(OC)c3)N2C1=S (some centres undefined) | -2.2% | 2.7% | 4.3% | ? | 7.8% | 1.6 | 3.9%
CC(C)NC(=O)C1(C)CCN1C(=O)c1ccc2c(c1)OCO2 (centres undefined) | -1.5% | / | / | / | 0.6% | 2.1 | /
N#Cc1cc(Oc2ccccc2)c(-n2nnc3ccccc32)cc1C#N | -5.0% | 5.5% | 10.1% | 4.9 | 7.8% | 3.3 | -19.1%
CCc1nc(SCC(=O)OC(C)C)c2ccccc2n1 | / | 6.0% | 6.2% | 0.7 | 0.2% | 7.0 | 30.4%[15.4 µM]
COc1ccccc1-n1c(C)cc(SC)c(C(C)=O)c1=S | -6.0% | -1.0% | 16.3% | 3.3 | -2.2% | -1.9 | 0.9%
O=C(NCCCc1ccccc1)C1CC(=O)N(c2ccc3c(c2)OCCO3)C1 (centres undefined) | -1.2% | -3.7% | 9.6% | 3.2 | 8.0%[38.3 µM] | -1.2 | -0.2%
CCCn1nc(NC(=O)c2ccco2)c2cc3ccccc3nc21 | -27.1% | -6.1% | 9.6% | -0.5 | 1.2% | 4.0 | ?
COc1ccc(NC(=O)NC(C)c2ccccc2)cc1 (centres undefined) | -1.1% | 4.9% | 20.7% | / | 0.0% | 1.7 | ?
CCN(c1ccccc1)c1cc(C)nc2nc(C)nn12 | 2.6% | 11.0% | 13.6% | 0.4 | -0.3% | -0.9 | 24.3%
CCC(C)NC(=O)CS(=O)Cc1nc(-c2cccc(C)c2)oc1C (centres undefined) | -5.2% | 2.8% | -14.6% | -0.5 | -0.3% | -1.9 | -34.5%[inhibitor]
O=C1NC2(CCCCC2)Oc2ccccc21 | 0.6% | 12.6% | 10.4% | 2.1 | -0.1% | 0.2 | 3.2%
Cc1c(NC(=O)CN2C(=O)C3C4C=CC(C4)C3C2=O)c(=O)n(-c2ccccc2)n1C (centres undefined) | -2.7% | 10.7% | 6.3% | 2.2 | -1.3% | -1.6 | -49.6%[inhibitor]
CCOCC(=O)Nc1sc2c(c1C(=O)OCC)CCCC2 | -15.7% | -25.7% | -25.9% | 0.3 | 10.5% | -4.5 | 3.1%
CC(C)(C)OC(=O)NCCCCCNC(=O)c1[nH]cnc1C(=O)N[C@@H](CCCCNC(=O)OC(C)(C)C)C(=O)OC(C)(C)C | 2.2% | -17.5% | 27.3% | -5.8 | 0.1% | 4.8 | -9.4%
Cc1ccc(CN(C)c2ccc(S(=O)(=O)N3CCCC3)cn2)cc1 | / | -19.6% | / | / | 4.3% | 3.3 | -2.8%[15.4 µM]
Cc1ccc(-c2nc3ccccc3s2)cc1S(=O)(=O)N1CCCC1 | ? | -8.4% | -16.7% | 3.5 | ? | 8.9 | -9.2%
CN(C1CCS(=O)(=O)C1)S(=O)(=O)c1cccc2nsnc12 (centres undefined) | -0.7% | 6.7% | 14.1% | 2.6 | 1.7% | -1.1 | 29.8%
Cc1c(Cl)c(=O)oc2cc(OCC(=O)N3CCCC(C)C3)ccc12 (centres undefined) | ? | -15.1% | / | / | 0.6% | 0.7 | ?
COc1ccc(-n2c(O)c(/C=N/NS(=O)(=O)c3ccc(C)c([N+](=O)[O-])c3)c3ccccc3c2=O)cc1OC | -10.0% | 36.4%[activator] | 11.8% | ? | 3.5% | -5.0 | -29.2%
CCCn1c(N)c(C(=O)CSc2nnc(Cc3cccs3)n2C2CC2)c(=O)[nH]c1=O | 0.0% | / | / | / | -0.3% | -0.6 | 11.7%
CCn1c(SCC(=O)Nc2ccc(NC(C)=O)cc2)nc2c([nH]c3ccccc32)c1=O | -9.6% | -5.8% | -10.0% | -4.5 | -1.3% | 2.5 | 21.2%
CC(C)(C)C(=O)NC1CC2CCCC(C1)N2C(=O)Nc1ccc(Cl)cc1 (centres undefined) | -0.1% | 5.8% | 9.4% | -1.1 | 0.8% | -3.5 | -4.2%[15.4 µM]
Cc1cc(C)nc(SCC(=O)N2CCCCC2)n1 | -1.7% | 6.8% | -15.1% | -1.7 | 0.4% | -0.6 | -14.9%
CC(=O)Nc1ccc(C(=O)N(C)c2ccccc2)cc1 | -2.0% | 4.9% | 20.9% | -0.5 | -1.3% | -1.5 | 0.1%
NC(=O)C1CCCN(C(=O)CCC(=O)c2cccs2)C1 (centres undefined) | -0.1% | -2.6% | / | / | -0.5% | -3.2 | -0.8%[15.4 µM]
COc1ccc(OC)c(CCNC(=O)CN2C(=O)COc3ccc(S(=O)(=O)N4CCOCC4)cc32)c1 | -0.9% | -5.5% | 4.7% | 3.6 | 0.2% | -5.1 | ?
CCCCNC(=O)CNC(=S)N(Cc1ccc(C)cc1)Cc1ccco1 | / | -8.1% | 56.2µM* | 4.2 | 0.9% | -1.2 | 9.6%[15.4 µM]
OCCCCNCc1ccc(OCc2ccccc2Cl)cc1 | 0.0% | 7.2% | -4.8% | -1.4 | -1.6%[38.3 µM] | -1.6 | 20.1%
CCNS(=O)(=O)c1ccc(NC(=O)c2ccccc2OCC)cc1 | 1.4% | 7.2% | 8.8% | 0.3 | 1.2%[38.3 µM] | 2.3 | -5.4%
COc1cc(C(=O)NC(=S)Nc2cccc(-c3cc4ccccc4oc3=O)c2)cc(OC)c1OC | 5.0% | -8.3% | 7.4% | 3.6 | 3.4% | -0.5 | 1.6%
Cc1ccn(CC(=O)N2CCCC(Nc3ccc(F)c(F)c3)C2)n1 (centres undefined) | 0.4% | 6.0% | 5.9% | / | 5.2% | -0.6 | 5.8%[15.4 µM]
C=CCn1c(SCC(=O)c2c(C)[nH]c3ccccc23)nnc1-c1ccncc1 | / | 14.0% | -9.3% | -0.6 | 3.1% | -2.0 | 3.9%[15.4 µM]
CC(C)C1/C(=N/O)CC(c2ccccc2)NC1c1ccccc1 (centres undefined) | / | ? | -2.1% | 7.0 | 8.2% | 6.3 | -4.7%[15.4 µM]
O=C1OCCC1Sc1nnnn1-c1ccc(Cl)cc1 (centres undefined) | / | -8.7% | 1.4% | 1.9 | 3.1% | 3.2 | -3.0%[15.4 µM]
Cc1c(NS(=O)(=O)c2ccc(Br)s2)c(=O)n(-c2ccccc2)n1C | 1.1% | -10.7% | -5.7% | 8.9 | 0.4% | 2.7 | 22.6%
O=c1[nH]c2ccccc2nc1C(F)(F)F | / | 2.3% | -0.2% | 0.5 | -0.1% | -1.4 | ?
COc1ccc(CCNC(=O)C23CN(Cc4ccccc4)CC2C(c2ccc([N+](=O)[O-])cc2)=NO3)cc1 (centres undefined) | 2.6% | -3.9% | 50.1µM* | 3.5 | 0.7% | -1.1 | /
CC1CCc2cc(F)ccc2N1S(=O)(=O)c1ccc(Cl)nc1 (centres undefined) | -0.8% | -10.3% | -19.1% | 2.8 | 8.8% | -0.4 | -7.6%
COc1ccc(CNc2cc(-c3ccccc3OC)ncn2)c(OC)c1 | / | / | 89.1µM* | 1.3 | -0.3% | / | /
CCCCn1c(-c2csc(CC)c2)n[nH]c1=S | -4.8% | 9.6% | 20µM* | 0.7 | 4.0% | 1.8 | ?
COc1cccc(CC2(CO)CCN(C(=O)NCCc3ccccc3)CC2)c1 | 0.9% | 5.1% | 16.2% | 1.4 | -0.7% | -0.9 | -22.5%
O=C(CCCCCNC(=O)N1CCn2c1nc1ccccc12)N[C@H](C(=O)O)c1ccccc1 | -0.6% | 3.5% | 13.9% | -1.0 | -1.1% | -8.5 | /
O=C(CN1C(=O)C(=O)N(CCC2=CCCCC2)C1=O)c1c[nH]c2ccccc12 | 11.2µM* | -19.4% | / | / | 1.5% | 2.3 | 18.1%[15.4 µM]
O=C(O)c1ccc(/C=C/c2nc3sc4c(c3c(=O)[nH]2)CCC4)cc1 | / | 13.5% | 9.7% | 4.2 | 1.8% | 1.3 | -1.5%[15.4 µM]
O=C(CC(SCCO)c1ccc2c(c1)OCO2)c1cccs1 (centres undefined) | 0.8% | -10.5% | 13.3% | 3.0 | -2.6%[38.3 µM] | -2.0 | -0.3%
COc1ccc(C2CC(C(F)(F)F)n3nc(C(=O)O)c(Br)c3N2)cc1 (centres undefined) | 0.9% | 4.1% | 2.7% | 4.4 | 0.3% | -4.0 | -4.6%
O=C(/C=C/c1c(F)cccc1Cl)c1ccc(O)cc1 | -0.5% | -18.3% | -6.0% | 6.2 | 14.9% | -1.7 | 9.2%
COC(=O)C(C#N)C(=C1C(=O)CC(C)(C)CC1=O)c1ccc(O)cc1 (centres undefined) | -2.3% | -2.4% | 11.3% | 1.2 | -0.8% | -0.4 | -0.1%
CCn1cc(CN2CCC(n3nccc3NC(=O)c3cccc(F)c3)CC2)c(C)n1 | -3.3% | 6.2% | 1.4% | / | 0.5% | -5.8 | ?

Assay outcomes deposited in PubChem BioAssay by National Center for Advancing Translational Sciences (NCATS).
